ClpP mod: qHTS Assay for Activators of ClpP | AID 651965, 2013 | 340,000 compounds, 1.9% hits | Potency, µM (top dose mostly 57.5 µM), without a hit: top-dose activity change, negative = active | purified B. subtilis ClpP, FRET peptide cleavage, 20 min | ATP-dependent Clp protease proteolytic subunit (Bacillus subtilis (strain 168)), P80244; active = well fitted falling curve with a large enough effect; inconclusive = small, poorly fitted or top-dose-only effect; inactive = no such curve, though single readings can be large or run the other way; also: potency is read from the fitted curve at half-maximal effect; the source files actives as falling curves though it sought activators and does not explain the sign; nearly all actives have a fitted effect of over 65% in size; many hits overshoot -100%
Target sequence (P80244 whole entry, looked up): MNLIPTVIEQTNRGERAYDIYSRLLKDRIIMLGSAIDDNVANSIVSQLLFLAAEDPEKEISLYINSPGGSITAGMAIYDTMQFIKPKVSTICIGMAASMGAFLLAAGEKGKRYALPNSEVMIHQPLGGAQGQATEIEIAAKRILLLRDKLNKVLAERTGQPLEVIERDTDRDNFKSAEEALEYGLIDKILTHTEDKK
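Purified B. subtilis ClpP, 10 microg/mL final in Tris/HCl pH8 with KCl, BSA, glycerol and Tween-20, cleaved an Abz/nitrotyrosine-quenched decapeptide. Fluorescence (ex 320, em 430) was read at 0 and 20 min at room temperature. Delta was normalized to 5.8 microM ADEP and DMSO/no-enzyme controls.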
Sfp PPTase inh: blocks B. subtilis Sfp PPTase activity; Q9F4F7; Biochemical Sfp PPTase activity, qHTS; Potency, µM, without a hit: max response, negative = inhibition, most hits filed as inhibitors; 310,000 compounds, 3.5% hits; AID 1490; active = well fitted inhibition curve with a large enough effect; inconclusive = small, poorly fitted or top-dose-only effect, or another doubt; inactive = no such curve, though single readings can be large or run the other way;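 also: the enzyme is Sfp with the accession as filed and its product quenches rhodamine fluorescence; potency is read from the fitted curve at half-maximal effect; 0% = enzyme reaction without inhibitor and -100% = no enzyme wells; top concentration of the series not given in the record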
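Sfp 15 nM + cpd, 15 min RT; start w/ rhodamine-CoA 5 uM, BHQ-2-YbbR 12.5 uM (final); 50 mM Hepes pH 7.6, 10 mM MgCl2, 0.01% NP-40, 0.01% BSA; read 525/598 nm at 0 and 30 min.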
gsp agonist: activates gsp, the McCune-Albright syndrome mutation. gsp mutant cells, cAMP HTRF, 30 min; control for the full effect not named in the record. Potency, µM (series often up to 76.9 µM), without a hit: top-dose activation (cAMP increase), most hits filed as activators. 340,000 compounds, 0.13% hits; active = well fitted activation curve with a large enough effect; inconclusive = small, poorly fitted or top-dose-only effect, or another doubt; inactive = no such curve, though single readings can be large or run the other way; cell line not stated here;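 also: phosphodiesterase inhibitor Ro 20-1724 added with compounds to block cAMP breakdown; potency is read from the fitted curve at half-maximal effect; nearly all actives have a fitted effect of over 60% in size; about a fifth of the inactives were tested at one dose only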
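Cells in DMEM/10% FBS with G418 were pretreated with compounds in DMSO plus […] (300 uM stock) for 30 min at 37C. cAMP was measured by HTRF (cAMP-d2 plus anti-cAMP antibody-K) after 30 min at room temperature.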
Menin MLL FP FL: inhibitors of human menin-MLL interaction, wild-type MLL peptide | Fluorescence polarization, fluorescein-MLL peptide displacement from menin | FP activity change, % at 61.4 µM | 290,000 tested, under 10 active | AID 1766; inconclusive = falling polarisation curve, or a change in total fluorescence; inactive = total fluorescence flat and polarisation flat or rising; no compound was filed as active; the % refers to the polarisation; negative = inhibition;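 also: % of control where 0% means no effect; inhibitors lower the polarisation; unlabelled MLL peptide was the positive control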
gsp antag: antagonists of gsp mutant (McCune-Albright syndrome); gsp-mutant cells, cAMP HTRF, 30 min; control for the full effect not named in the record; 340,000 compounds, 0.4% hits; Potency, µM (doses to about 76.9 µM), without a hit: at the highest dose activity change, negative = inhibition, most hits filed as inhibitors; active = falling curve of any shape with a large fitted effect; inconclusive = falling curve, mostly with a smaller effect; inactive = flat or rising curve; cell line not stated here;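 also: intracellular cAMP measured with PDE inhibitor Ro 20-1724 present during compound exposure; potency is read from the fitted curve at half-maximal effect; % is scaled to controls: 0 for no effect and ±100 for the full control effect; nearly all actives have a fitted effect of over 65% in size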
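Cells in G418 medium, seeded 16-24 h, 37C; buffer exchange to DPBS + 1 mM CaCl2, 0.5 mM MgCl2, 0.05% BSA; cpds in DMSO + […] (300 uM stock), 30 min 37C; HTRF cAMP detection.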
TRPML1 blocker: blocks the human TRPML1 channel; TRPML1-inducible cells, Ca2+ dye fluorescence, FDSS; active compounds read low; inhibition of EC80 agonist-evoked calcium signal; activity change, negative = inhibition, % (test concentration not listed); 390,000 compounds, 0.02% hits; in the data active means activity change below about -50%; inconclusive means about -30% to -50%; inactive means above about -30%;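 also: stimulus is agonist 54-4 at its EC80 concentration; % is scaled to controls: 0 for no effect and ±100 for the full control effect; compound concentration not given in the record; the text of the record puts the active cut at -80%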
Target sequence (Q9GZU1 whole entry, looked up): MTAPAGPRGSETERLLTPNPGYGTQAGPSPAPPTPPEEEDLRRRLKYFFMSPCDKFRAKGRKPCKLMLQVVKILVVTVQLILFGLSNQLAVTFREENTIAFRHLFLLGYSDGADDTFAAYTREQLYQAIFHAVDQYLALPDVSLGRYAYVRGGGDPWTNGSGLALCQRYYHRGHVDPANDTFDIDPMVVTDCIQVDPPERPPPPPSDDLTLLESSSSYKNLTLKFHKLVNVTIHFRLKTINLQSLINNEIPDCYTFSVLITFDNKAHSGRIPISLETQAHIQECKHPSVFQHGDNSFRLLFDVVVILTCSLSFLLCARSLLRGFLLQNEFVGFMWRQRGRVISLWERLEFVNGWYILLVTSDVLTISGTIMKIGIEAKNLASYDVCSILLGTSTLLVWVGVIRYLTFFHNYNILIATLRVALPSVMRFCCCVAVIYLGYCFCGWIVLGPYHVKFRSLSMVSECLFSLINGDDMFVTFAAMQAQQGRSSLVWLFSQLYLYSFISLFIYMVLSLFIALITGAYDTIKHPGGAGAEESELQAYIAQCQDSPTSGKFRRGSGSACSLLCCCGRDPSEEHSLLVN
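TRPML1-DL cells, Tet-induced overnight (~16 h, 37 °C) at 1,500 cells/well, were loaded with Ca8 no-wash dye plus quencher for 45-90 min at room temperature. Compounds were pinned during FDSS kinetic reading; agonist 54-4 at EC80 (4 uM final) then added.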
TRPV1 PAM: human TRPV1 potentiation; potentiation, % at 8.33 µM; TRPV1-expressing cells, Fluo-8 calcium influx, capsaicin EC20 potentiation; host cell line not named in the record; control for the full effect not named in the record; 320,000 compounds, 0.02% hits; active means potentiation above 80%; inconclusive means 30% to 80%; inactive means below 30%; also: 0% is about no effect
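TRPV1-expressing cells were cultured overnight at 35.5C and loaded with Fluo-8 calcium dye for 40 to 90 min at room temperature. After a 10 s baseline, compound was added and calcium influx was read kinetically for 3 min (ex 480/em 520 nm).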
Numbers without * were called inactive; ? = inconclusive; nt = no result given; [ ] = remark or other dose.

Values run as follows: Menin MLL FP FL	ClpP mod	TRPV1 PAM	gsp antag	TRPML1 blocker	gsp agonist	Sfp PPTase inh
O=C(c1ccco1)N1CCN(C(c2cccs2)c2nnnn2C2CCCC2)CC1 (stereo not given)
→ -7.2	0.1%	21.3	-9.5%	5.7	-8.4%	-0.5%
COc1ccccc1NC(=O)C(CC(=O)O)Cc1cc(C)cc(C)c1 (stereo not given)
→ nt	-2.6%	nt	nt	-13.2	-10.2%	nt
CCOC(=O)C1=C(C)NC(=O)NC1c1cc(Br)c(O)c(OC)c1 (stereo not given)
→ 2.2	-7.2%	-4.5	2.4%	-9.5	-2.9%	0.0%
CCOc1ccc(OCCC(=O)OCC(=O)NC2CCCC2)cc1
→ nt	0.7%	-15.7	-9.8%	1.3	-9.5%	nt
COc1cc(NC(=NS(=O)(=O)c2ccccc2)c2ccccc2)ncn1
→ nt	nt	nt	-6.3%	-9.4	-3.3%	nt
Brc1cc(Br)cc(CN2CCSCC2)c1
→ -0.7	nt	-2.9	-4.0%	10.7	15.2%	-6.0%
Cc1csc2c(N3CCC(C(=O)O)CC3)ncnc12
→ 2.9	-0.3%	-5.6	-1.0%	-8.4	17.8%	7.1%
O=C(NCC1CCCCC1)c1ccc([N+](=O)[O-])cc1
→ -0.8	-1.7%	-27.8	0.6%	nt	-5.9%	18.3%
Cc1cccc(CN2CCC(N3CC(C)OC(C)C3)CC2)c1 (stereo not given)
→ ?	0.6%	8.9	-1.6%	-3.7	-3.9%[15.4 µM]	?
Cc1ccc(S(=O)(=O)c2nc(-c3ccccc3)oc2NCc2cccnc2)cc1
→ 3.4	-3.9%	-8.6	-9.2%	3.3	-43.2%[inhibitor]	-21.3%
O=C(Nc1ccc(-c2ccco2)cc1)C1CCCN(Cc2ccco2)C1 (stereo not given)
→ nt	-2.5%	nt	nt	21.4	38.7%	nt
O=C(NC(=O)c1ccc(F)cc1F)Nc1ccc(Cl)cc1
→ -3.8	nt	16.8	3.5%	0.1	-15.7%[15.4 µM]	16.3%
COc1ccc(N2C(=O)CC(c3ccccc3)C2=O)cc1 (stereo not given)
→ 0.3	-0.8%	5.2	13.8%	13.1	-0.4%[15.4 µM]	9.2%
O=C(Nc1cccc(-c2nc3ccccc3s2)c1)c1cccs1
→ 0.5	nt	-3.9	22.4µM*	4.9	1.0%[15.4 µM]	3.4%
O=C(c1ccc(O)cc1)c1ccc(Cl)cc1
→ -0.6	-1.5%	19.2	-11.6%	18.3	2.9%	20.8%
CCOC(=O)c1csc(NC(=O)C2CCCCC2)n1
→ 1.8	0.8%	7.8	2.5%	3.4	-4.9%	4.0%
Cc1nc2c(-c3ccccc3)c(C)[nH]n2c(=O)c1Cl
→ 4.7	?	?	-21.9%	16.1	-5.4%	39.1%[activator]
CCc1ccc(N2CN(Cc3ccco3)CNC2=S)cc1
→ 1.0	nt	23.9	-15.3%	-9.1	-4.0%[15.4 µM]	0.0%
O=NNc1nc2ccccc2n1Cc1ccccc1
→ 2.0	-1.2%	-1.1	3.0%	1.2	-4.7%	-95.3%
O=C(c1nn2c(C(F)(F)F)cc(-c3ccc(F)cc3)nc2c1Cl)N1CCOCC1
→ 1.5	-4.1%	-16.1	-1.8%	-4.0	?	-3.3%
CC(C)(C)c1ccc(C(=O)Nc2ccc(O)c3c(=O)cc(-c4cccc(Cl)c4)oc23)cc1
→ 0.9	-0.1%	6.3	-11.6%	6.5	nt	-8.4%
CSc1ccc(CN2CCC(N3CC(C)OC(C)C3)CC2)cc1 (stereo not given)
→ -0.3	0.2%	11.9	13.7%	12.9	-11.2%[15.4 µM]	-23.6%
Cc1oc(C(=O)O)cc1COc1ccc2c(C)cc(=O)oc2c1
→ 1.1	?	0.9	9.5%	10.8	-17.1%	20.3%
Cc1cc(C)cc(Oc2coc3c(CN(C)C)c(O)ccc3c2=O)c1
→ 0.0	0.0%	-28.8	10.9%	-11.2	6.0%[15.4 µM]	-11.7%
O=C(CCCn1c(=O)[nH]c2cc(Cl)ccc2c1=O)NCCCN1CCCC1=O
→ 0.7	-5.0%	5.5	0.0%[15.4 µM]	-5.4	19.3%	3.7%
Cc1cc(C(F)(F)F)c2c(N)c(C(=O)Nc3cc(C)on3)sc2n1
→ -11.5	-4.3%	3.9	0.0%	-9.5	?	9.3%
COc1ccccc1CNc1nc(SC)ncc1CO
→ 1.1	1.3%	6.2	9.3%	-8.3	-4.5%	-8.3%
O=S(=O)(c1ccccc1)N(C1=NCCS1)S(=O)(=O)c1ccccc1
→ -3.8	-1.5%	?	-34.3%	8.2	14.0%	-7.2%
O=C(O)CSCC(=O)Nc1cccc2ccccc12
→ 2.9	-0.3%	10.4	0.0%	1.3	-47.6%	5.3%
CCOC(=O)c1nnn(CC(=O)N2N=C(c3cc(C)ccc3C)CC2c2ccc(OC)cc2)c1C(=O)OCC (stereo not given)
→ 3.7	-14.4%	0.6	-10.4%	40.9	7.8%	18.8%
O=[N+]([O-])c1ccc(CSc2nnc3ccccn23)cc1
→ -0.9	-0.1%	-7.1	1.2%	11.6	17.8µM*	-4.2%
O=C(COC(=O)[C@@H]1CC(O)CN1S(=O)(=O)c1ccc(Cl)c(Cl)c1)NC(=O)NCc1ccccc1 (stereo not given in full)
→ nt	nt	nt	0.9%	17.3	-9.9%	nt
CC(C)(C)NC(=O)C(OC(=O)c1cccs1)c1ccc(F)cc1 (stereo not given)
→ -1.5	-0.9%	-8.7	-2.2%	9.6	3.7%	15.7%
COc1cccc2cc(C(C)N(CCCN3CCOCC3)C(=S)Nc3ccccc3C)oc12 (stereo not given)
→ -1.5	nt	0.2	-18.3%	16.0	8.6%	12.3%
CC(C)Cc1nnc(NC(=O)CS(=O)(=O)Cc2ccccc2)s1
→ 15.4	1.1%	11.6	-2.8%	-12.8	-51.8%[inhibitor]	-16.0%
COc1ccc(S(=O)(=O)N2CCN(CC3CC=CCC3)CC2)cc1 (stereo not given)
→ -0.2	-0.8%	-17.2	2.7%	-6.3	2.7%[15.4 µM]	-3.3%
Cc1ccc(OCCC(=O)NCCc2ccc(S(N)(=O)=O)cc2)cc1
→ -1.8	12.6µM*	-16.2	10.9%	-19.4	-8.8%	3.6%
O=C(NCCOc1ccccc1)c1ccccc1[N+](=O)[O-]
→ -2.2	-1.7%	10.8	5.6%	10.2	-3.9%	6.2%
CCN(CC)S(=O)(=O)c1cccc(-c2nnc(SCc3nnc(-c4cccs4)o3)n2N)c1
→ 0.1	-0.2%	-4.0	-13.5%	13.8	19.9%	-10.0%
CC1(c2ccc3ccccc3c2)NC(=O)N(CC(=O)Nc2cccc(S(=O)(=O)N3CCOCC3)c2)C1=O (stereo not given)
→ 3.6	-3.0%	-5.2	-3.5%	1.7	14.9%	3.7%
Cn1c(SCC(=O)NCc2ccccc2)nnc1-c1ccc(NC(=O)CCc2ccccc2)cc1
→ 3.0	2.1%	3.8	-1.4%	-16.5	-1.3%	13.9%
Cc1ccc(Cc2c(-c3ccc(C)cc3)nc3cc(C)ccn23)cc1
→ nt	4.3%	nt	nt	61.7	?	nt
Cc1cc(S(=O)(=O)N(Cc2ccccc2Cl)c2ccc3c(c2)CCC3)ccc1-n1cnnn1
→ -1.0	0.0%	9.4	-8.9%	33.9	1.8%	-2.2%
CC1CCCC(NC(=O)CCS(=O)(=O)c2cc3c(cc2Cl)NC(=O)CO3)C1C (stereo not given)
→ 1.1	1.0%	-10.3	6.8%	69.9	-37.5%[inhibitor]	28.6%
Fc1ccc(NC(=S)N/N=C/c2ccc(F)c(F)c2)c(F)c1
→ 3.2	-3.0%	-4.8	3.6%	20.4	?	0.2%
COc1cc(C(O)CO)ccc1OS(=O)(=O)O (stereo not given)
→ 0.5	1.4%	1.8	7.0%	1.5	nt	nt
Cn1c(=S)[nH]c2ccccc21
→ 2.3	0.2%	2.8	10.4%	-7.9	27.8%	-2.6%
C=CCn1c(O)c(N=NC(=O)OC(C)(C)C)c2ccccc21
→ 5.0	1.4%	1.2	9.6%	24.7	-27.9%	-0.6%
Cc1cccc2cc(C3CC(c4ccco4)=NN3C(=O)CCC(=O)O)c(Cl)nc12 (stereo not given)
→ 6.3	-4.2%	2.1	-15.9%	10.7	-26.8%	-16.6%
Cc1noc(C)c1C(=O)OCC(=O)NCc1ccccc1
→ nt	nt	7.3	10.0%	-12.7	79.5%[15.4 µM]	nt
Brc1ccccc1-c1nnc(COc2cccc3cccnc23)o1
→ 2.9	-14.0%	17.1	-6.3%	5.0	8.9%	-5.4%
O=[N+]([O-])c1ccc(N2CCNCC2)c(S(=O)(=O)N2CCOCC2)c1
→ -0.6	-1.5%	0.2	12.5%	45.6	-2.3%	10.0%
COc1cc(CN(C)CCc2ccccn2)cc(OC)c1OC
→ -3.7	-2.0%	-2.2	6.4%[15.4 µM]	-19.1	16.3%	-95.8%
Cc1cc(C)n(-c2cc(=O)n(C)c(=O)n2C)n1
→ -0.2	-0.1%	6.4	-2.3%	-3.8	28.0%	0.5%
Cc1nc(C)c(C(=O)C2=C(O)C(=O)N(CCN3CCOCC3)C2c2cccnc2)s1 (stereo not given)
→ 4.2	0.3%	4.8	-1.7%	-8.9	6.6%	-24.5%
C[C@H](CO)N1C[C@H](C)[C@@H](CN(C)Cc2ccc(Cl)c(Cl)c2)Oc2c(NS(=O)(=O)c3cn(C)cn3)cccc2C1=O
→ nt	-12.3%	nt	0.1%	6.9	nt	nt
Cc1cccc(N2N=C(C(=O)N3Cc4ccccc4CC3C(N)=O)CCC2=O)c1 (stereo not given)
→ nt	1.7%	nt	8.3%	23.7	?	nt
COc1cc(CNn2c(C)n[nH]c2=S)cc(Br)c1OCc1ccc(F)cc1
→ 1.8	-9.9%	-2.6	-1.0%	5.4	-2.5%	-9.6%
CN(C)CCCNc1c2c(nc3cc(-c4cccc(F)c4)nn13)CCC2
→ 4.0	-6.0%	5.5	9.7%	36.0	22.2%	5.7%
